Bioassay records: PubChem, Fisher Drug Discovery Resource Center
NPYLR7 ag: mosquito NPYLR7 agonism | actives 0.15% (n = 270,000) | AID 1259423 | HEK293T NPYLR7/Galpha15, GCaMP6s calcium fluorescence | activation, % at 10 µM; in the data active = activation above about 40%;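 also: 0% = vehicle and 100% = reference agonist at the receptor; some compounds past the cut are filed as inactive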
NPYLR7 ag max-min: recorded beside NPYLR7 ag, whose call it bears; activation, %; measured here: Max-Min RFU normalised activation; some inactives read as strong as hits;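 span of the calcium signal over five minutes; 0% = vehicle and 100% = native peptide agonist; compound fluorescence can raise it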
Numbers without * were called inactive; i = inactive.

SMILES | NPYLR7 ag | NPYLR7 ag max-min
O=C(NCCNc1cccc2ccccc12)c1ccc(CSc2ccc3ccccc3n2)cc1 | -7 | -15
COc1cccc(-c2cnc(-c3ccc(CNC(=O)C(C)Oc4ccccc4)cc3)[nH]2)c1 (configuration not stated) | -6 | -15
O=C(O)c1cnn(-c2cccc(F)c2)c1-c1ccccc1 | -4 | -6
c1cncc(-c2nc(Sc3nnnn3C3CC3)c3ccccc3n2)c1 | -4 | 2
COc1ccc(S(=O)(=O)N2CCN(c3cccc(C)c3C)CC2)cc1C | 1 | 2
Cc1cnccc1N1CCCN(Cc2ncc[nH]2)CC1 | 5 | 3
O=C(/C(Br)=C/NCC1CCCO1)C(F)(F)F (configuration not stated) | -2 | -2
Cn1c(-c2ccc(C(=O)c3ccccc3)o2)nc2ccccc21 | -12 | -17
COc1ccc(C2NCCc3c2[nH]c2ccccc32)cc1CSc1nc2ccccc2[nH]1 (configuration not stated) | -6 | -8
CCOC(=O)c1c(N)sc(C(=O)N(C)Cc2ccccc2)c1C | -3 | -10
COCCCNC(=O)c1nn(-c2cccc(C)c2)c(=O)n(Cc2cccc(C(F)(F)F)c2)c1=O | 10 | 8
CCOCCCn1c(SCC(=O)OCC)nc2cc(S(=O)(=O)N3CCOCC3)ccc21 | 13 | 5
O=C(NCCN1CCCC1)C1=Cc2sc3c(c2CS1)CCCC3 | 1 | -3
Cc1ccc(NC(=O)C(C)C)c(C(=O)N(C)Cc2cnc3ccccn23)c1 | 4 | 2
O=C(CCc1nccs1)NCc1ccc(Br)cc1F | 4 | 1
CCOc1ccc(S(=O)(=O)n2cccn2)cc1C(C)(C)C | -1 | 48
COC(=O)CCCC[C@H]1SC[C@H]2NC(=O)N[C@]21O | 1 | -3
CCC(C)C1NC2(CCN(S(=O)(=O)C(C)C)CC2)N(C(C)c2ccccc2)C1=O (configuration not stated) | 21 | 14
CC(C)=C(C)C(=O)Nc1ccccc1 | 0 | 12
CCOCCOc1nc(-c2ccc(OC)cc2)n(-c2ccc(NC(=O)COC)cc2)n1 | 21 | 20
COc1cc([N+](=O)[O-])ccc1N=Nc1c(C)[nH]n(-c2nc(-c3ccc(C)cc3)cs2)c1=O | -4 | -8
COC(=O)/C(=C\c1cn(-c2ccccc2)nc1-c1ccc(Cl)cc1)C(C)=O | -4 | -8
Cc1cccc(NCC2CCCN2C(=O)Cn2cncn2)n1 (configuration not stated) | 2 | 6
COC(=O)[C@H]1[C@H]2C[C@@H]3c4[nH]c5cc(OC)ccc5c4CCN3C[C@H]2C[C@@H](OC(=O)/C=C/c2cc(OC)c(OC)c(OC)c2)[C@@H]1OC | -5 | -9
Cc1ccn2c(NC(=O)C(C)C)c(-c3ccccc3)nc2c1 | -10 | -1

Looked up by compound from above (3):
SMILES | NPYLR7 ag | NPYLR7 ag max-min
O=C(CCc1nccs1)NCc1ccc(Br)cc1F | 4 | 1
CCOC(=O)c1c(N)sc(C(=O)N(C)Cc2ccccc2)c1C | -3 | -10
c1cncc(-c2nc(Sc3nnnn3C3CC3)c3ccccc3n2)c1 | -4 | 2

Structures above that contain a CF3 group (2):
SMILES | NPYLR7 ag | NPYLR7 ag max-min
O=C(/C(Br)=C/NCC1CCCO1)C(F)(F)F (configuration not stated) | -2 | -2
COCCCNC(=O)c1nn(-c2cccc(C)c2)c(=O)n(Cc2cccc(C(F)(F)F)c2)c1=O | 10 | 8

The listing continues:
SMILES | NPYLR7 ag | NPYLR7 ag max-min
Cn1c(=O)c2cc(C(=O)NCC3COc4ccccc4O3)sc2n(C)c1=O (configuration not stated) | 4 | 3
CCOc1ncccc1CN1CCCC(C(=O)NC2CCCC(C)C2)C1 (configuration not stated) | -12 | -13
CN(Cc1cn(Cc2ccccc2)nc1-c1cc2ccccc2o1)C1CCOCC1 | 19 | 7
C=CCNC(=O)C1C2c3ccccc3C(c3ccccc32)C1CC (configuration not stated) | 3 | 4
COc1cc(-c2nc3cc(C)ccn3c2NC(C)(C)CC(C)(C)C)ccc1OC(=O)c1ccc(C(C)(C)C)cc1 | 12 | 13
CCC(COC)NC(=O)Nc1ccc(-c2n[nH]c(C)n2)cc1 (configuration not stated) | 2 | 0
CN(C)CC1(O)CCN(C(=O)c2ccc(-c3ccn[nH]3)cc2)C1 (configuration not stated) | 22 | 6
CC(Cn1cnc2ccccc21)C(=O)NN=Cc1ccc(Br)cc1 (configuration not stated) | -9 | -9
O=P(c1ccccc1)(c1nc2ccccc2s1)N1CCCCCC1 (configuration not stated) | 0 | 87
O=S(=O)(Nc1ccc2c(c1)OCO2)c1cccs1 | -1 | -4
CCOc1cc(C=C2N=C(c3ccc(Cl)cc3)OC2=O)ccc1OCC(=O)N(C)C | 18 | 18
Cc1csc(=O)n1CC(=O)OC(C)C(=O)Nc1ccnn1C(C)C (configuration not stated) | -3 | 6
CN(C)CCCNC(=O)CC1CSc2nc3c(cnn3-c3ccc(F)cc3)c(=O)n21 (configuration not stated) | 4 | 3
Cc1cc(OC(=O)c2ccc(Cl)cc2)c([N+](=O)[O-])c(=O)[nH]1 | -2 | -2
CC(NC(=O)c1cc(NC(=O)c2cc(Cl)cc(Cl)c2)ccc1N1CCCC1)c1ccccc1 (configuration not stated) | -3 | 2
COc1cccc(-c2cc(C(=O)N3CCN(C(=O)COc4ccccc4)CC3)c(C)n2-c2ccccc2)c1 | 1 | 7
COc1ccc2[nH]c3c(=O)n(CCCC(=O)N4CC=C(c5ccccc5)CC4)c(=S)[nH]c3c2c1 | 3 | 7
O=C(c1ccc2c3c(cccc13)CC2)C1CCCN(C(=O)CCCn2cncn2)C1 (configuration not stated) | 19 | 10
O=C1CN(Cc2csc(-c3cccs3)n2)CCN1 | -3 | 0
CCc1[nH]c2c(CNC(=O)C(C)n3cncn3)cc(F)cc2c1C (configuration not stated) | 5 | 2
Cc1cn2c(nc1=O)OC1[C@@H](O)[C@@H](CO)O[C@H]12 (some centres not stated) | -4 | -2
CCc1ccc(C2C(C(=O)OCc3ccccc3)=C(C)NC3=C2C(=O)CCC3)cc1 (configuration not stated) | 0 | 0
S=c1n(-c2ccccc2)cnn1CN1CCN(c2cccc(Cl)c2)CC1 | -4 | -5
CN1C(=O)CC(C(=O)Nc2ccc(F)cc2)SC1=Nc1ccc(F)cc1 (configuration not stated) | 3 | 0
O=C(CO)NCC1CCCN(C/C=C/c2ccccc2)C1 (configuration not stated) | 20 | 4

Profiles, quoted from the list. Values in the order: NPYLR7 ag | NPYLR7 ag max-min
CN(Cc1cn(Cc2ccccc2)nc1-c1cc2ccccc2o1)C1CCOCC1 is listed with 19 | 7
O=C1CN(Cc2csc(-c3cccs3)n2)CCN1 is listed with -3 | 0
CCOc1ncccc1CN1CCCC(C(=O)NC2CCCC(C)C2)C1 (configuration not stated) is listed with -12 | -13
O=C(c1ccc2c3c(cccc13)CC2)C1CCCN(C(=O)CCCn2cncn2)C1 (configuration not stated) is listed with 19 | 10
CN1C(=O)CC(C(=O)Nc2ccc(F)cc2)SC1=Nc1ccc(F)cc1 (configuration not stated) is listed with 3 | 0

The listing continues:
SMILES | NPYLR7 ag | NPYLR7 ag max-min
CC(Cn1cccn1)NC(=O)C1(Oc2ccc(Cl)cc2)CCNCC1 (configuration not stated) | 6 | 3
COc1cccc(-c2nnc(SCC(=O)N3CCN(C(=O)CC(C)CC(C)(C)C)C(C)C3)n2-c2ccccc2)c1 (configuration not stated) | 18 | 21
CSc1ccccc1NC(=O)CCC(=O)NCC1CCCCO1 (configuration not stated) | 10 | 5
COc1ccccc1CN(C)S(=O)(=O)c1ccc(C)cc1C | 1 | 0
CN=c1scc(-c2ccccc2)n1N=Cc1cccc(C(F)(F)F)c1 | 6 | 4
COc1cc(/C=C2\C(=O)NC(=O)N(C)C2=O)ccc1OCc1ccc(C(=O)O)cc1 | -3 | -5
CCS(=O)(=O)N(CCOC)CC(=O)N(CCc1c[nH]c2ccccc12)Cc1ccc(OC)c(OC)c1 | 4 | 19
CCOC(=O)C1(CC2CCCCO2)CCN(C(=O)CCC(=O)c2ccc(F)cc2)CC1 (configuration not stated) | 13 | 0
CN(C)C(C)(C)C#CCCCCC#CC(C)(C)N(C)C | 7 | 4
CCCCN(CC(=O)N(Cc1ccccc1)Cc1ccc(C)s1)C(=O)Nc1ccc(OC)cc1OC | 10 | 16
COc1ccc(-c2cc(C(=O)Nc3cccc(C(F)(F)F)c3)c3ccccc3n2)cc1 | 6 | 17
CCOc1cc(C(=O)Oc2coc(CSc3ncccn3)cc2=O)cc(OCC)c1OCC | -9 | -4
COc1ccc(S(=O)(=O)CC(=O)Nc2nc3ccc4sc(C)nc4c3s2)cc1 | 15 | 9
Cc1ccc(C2(c3noc(CN4CCCCC4c4nccn4C)n3)CCCC2)cc1 (configuration not stated) | 10 | 5
Cc1c(C(=O)NCc2ccccc2Cl)cnc2c(-c3ccc(C(C)C)cc3)cnn12 | 24 | 14
CCc1nc2n(n1)C(=O)C(C(c1ccccc1Cl)N1CCC(O)CC1)S2 (configuration not stated) | 1 | -6
CCOC(=O)C(Cc1ccc(Cl)cc1)NC(=O)C1CCCCC1C(=O)N1CCc2c([nH]c3ccccc23)C1 (configuration not stated) | -10 | -12
CCc1ccc(CN2CCCC(C(=O)Nc3ccc(-c4cscn4)cc3)C2)o1 (configuration not stated) | -6 | -9
O=C(O)c1cc(-c2ccccc2F)nn1-c1ccccc1 | 2 | 13
Fc1ccc(CN(Cc2cccc3c2OCO3)CC2CCCO2)cc1 (configuration not stated) | 1 | 1
O=C1c2ccccc2C(=O)c2c1ccc1[nH]c(=O)[nH]c21 | 6 | 3
COc1cc(/C=C2/SC(=S)N(CC(=O)O)C2=O)ccc1Oc1ccc([N+](=O)[O-])cc1[N+](=O)[O-] | 16 | 32
COCCN(Cc1c(-c2ccccc2)noc1N(C)C1CCCCC1)C(=O)Cc1ccccc1 | 8 | 11
Cc1ccccc1C(CC(=O)N(C)C1CCC(C)CC1)NC(N)=O (configuration not stated) | 1 | -3
COc1cc(C(=O)Nc2c3c(nn2C(C)(C)C)CS(=O)C3)cc(OC)c1OC (configuration not stated) | -1 | -4

Continuation:
| molecule | NPYLR7 ag | NPYLR7 ag max-min |
| --- | --- | --- |
| CC(=O)Oc1cccc(/C=C2N=C(/C=C/c3cccc(Cl)c3Cl)OC\2=O)c1 | -4 | -9 |
| Cc1nc(C)n(CCCNC2CCN(C(=O)c3ccccc3)CC2)n1 | 11 | 7 |
| CCOC(=O)c1ccc2c(c1)nc(SCc1ccccc1I)n2CCc1ccc(OC)cc1 | -5 | -4 |
| CCn1nnc2c(N3CCc4cc(OC)c(OC)cc4C3C)ncnc21 (configuration not stated) | 6 | 2 |
| COCC1CN(c2nc3ccccc3cc2CO)CCO1 (configuration not stated) | -25 | -24 |
| O=S(=O)(c1ccc(Cl)cc1)c1nnn2c1nc(N1CCOCC1)c1ccccc12 | 5 | 4 |
| O=C(Cn1ccc(=O)[nH]c1=O)N1CCN(C(=O)C(c2ccccc2)c2ccccc2)CC1 | -4 | -2 |
| NC(=O)c1cncc(-c2ccccc2-c2ccccc2)c1 | 3 | 1 |
| O=C1N=C2OC=C(C(=O)Nc3ccc(-n4cccc4)cc3)N2CCN1 | -1 | -4 |
| C=C1CC[C@@H]2[C@](C)(CC[C@H](O)[C@@]2(C)CCC=C(C)C)[C@@H]1Cc1c[nH]c2ccccc12 | -11 | -17 |
| Oc1ccccc1-c1cc(C(F)(F)C(F)F)no1 | 17 | 6 |
| O=C(CCSCc1cc2c(cc1Br)OCCO2)Nc1ccccc1 | -2 | -5 |
| CN(C)CCNS(=O)(=O)c1cc(Cl)cc(Cl)c1 | 7 | 4 |
| COc1ccc(CNc2cc(-c3ccc(C(C)C)cc3)nc3ccnn23)cc1 | -5 | -11 |
| Cc1cccc(CNc2nc3cnc(-c4cccc(O)c4)cc3n2C)c1 | 12 | 1 |
| C#CCN1C(=O)[C@]2(C)[C@H](c3ccccc31)[C@@H](C(=O)NC)CN2C(=O)c1cccc(OC)c1 | 0 | 4 |
| COc1ccccc1CN1CC(C(=O)NCCCc2cccnc2)CCC1=O (configuration not stated) | 12 | 9 |
| Cc1ccc(OCC(=O)N2CCOC(COc3ccc(Cl)c(C)c3)C2)cc1 (configuration not stated) | 4 | 1 |
| O=C(Oc1cc(Br)c(O)c([N+](=O)[O-])c1)c1ccccc1 | 11 | 10 |
| CC1CC(c2ccccc2F)N(C(=O)CNC(=O)c2cccs2)C1 (configuration not stated) | 9 | 8 |
| COc1ccc(CNC(=O)CCC2CCCN(C(=O)c3cccnc3OC)C2)c(OC)c1 (configuration not stated) | 1 | 0 |
| COC(=O)C1(F)CCN(C(=O)C2(S(C)(=O)=O)CCCC2)C1 (configuration not stated) | -9 | -9 |
| Cc1nsc(NC(=O)C2(C)CCCN(C)C2)n1 (configuration not stated) | 1 | -2 |
| COc1cccc(C(=O)N(CCN(C)C)Cc2c(-c3cccc(C)c3)noc2N2CCOCC2)c1 | 6 | 7 |
| c1nc2ccc(-c3ccc4c(c3)OCO4)cc2[nH]1 | 3 | 2 |
| CC(C)CCCC1CN(C(=O)c2ccc3[nH]c(=O)c(=O)[nH]c3c2)CCO1 (configuration not stated) | -2 | -5 |
| CCC1(c2ccc(C)cc2)CC(=O)NC1=O (configuration not stated) | 7 | i |
| COC(=O)CCC(=O)c1oc2ccc(Br)cc2c1N | -1 | -3 |
| CN1CC2(CCCN(Cc3noc(C(C)(C)C)n3)CC2)OC1=O (configuration not stated) | -2 | -4 |
| Cc1ccc(C(=O)Nc2ccc(Br)cc2)cc1S(=O)(=O)N1CCOCC1 | -3 | -8 |
| O=C(NCc1ccncc1)c1csc(N2CCN(Cc3cccc(C(F)(F)F)c3)C2=O)n1 | 0 | -3 |
| O=S1(=O)CC2N=C(Nc3cccc(Cl)c3)SC2C1 (configuration not stated) | 0 | -1 |
| COc1ccc(CN2CCn3nc(C(=O)N4CCCC(C(N)=O)C4)cc3C2=O)cc1 (configuration not stated) | 21 | 4 |
| COc1ccc(N2CCN(c3cc(C(=O)NCCCN4CCOCC4)c4ccccc4n3)CC2)cc1 | 28 | 16 |
| CCCOC(=O)c1ccc(NC(=O)c2cc3ccccc3oc2=O)cc1 | -3 | -8 |
| COc1ccc(Cc2nc(CSCc3ccccc3C)cs2)cc1 | 26 | 33 |
| O=C(C1CCCCCC1)N1C[C@@H]2CN(C(=O)C3CC3)C[C@]2(C(=O)O)C1 | 11 | -3 |

An excerpt; the hit share may differ from the screen's.
